Screening results deposited in PubChem by National Center for Advancing Translational Sciences (NCATS).
D2 agonist – agonists of human D2 dopamine receptor (beta-arrestin); P14416; DiscoveRx PathHunter D2 beta-arrestin, luminescence, 90 min; 100% = 57 uM dopamine signal; activation, % (test concentration not listed); hit rate 0.084% among 360,000; AID 624465; in the data active = activation above about 40%; inconclusive = about 15% to 40%; inactive = below about 15%; further: compound concentration not given in the record; the text of the record calls up to 30% inactive
Target sequence (P14416 whole entry, looked up): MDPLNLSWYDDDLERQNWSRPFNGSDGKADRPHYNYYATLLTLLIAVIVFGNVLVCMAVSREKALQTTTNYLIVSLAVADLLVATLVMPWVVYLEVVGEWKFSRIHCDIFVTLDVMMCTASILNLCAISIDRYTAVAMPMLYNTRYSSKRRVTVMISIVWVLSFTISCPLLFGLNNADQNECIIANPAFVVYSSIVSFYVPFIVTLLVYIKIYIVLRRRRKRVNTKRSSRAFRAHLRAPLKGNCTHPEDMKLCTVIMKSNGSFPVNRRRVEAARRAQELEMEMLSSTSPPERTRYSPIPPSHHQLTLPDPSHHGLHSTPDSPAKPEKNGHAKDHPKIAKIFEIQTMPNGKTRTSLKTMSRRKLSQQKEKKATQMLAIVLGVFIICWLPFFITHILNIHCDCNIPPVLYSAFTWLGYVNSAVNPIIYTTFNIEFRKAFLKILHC
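Agonist mode: compounds alone added to overnight-plated D2 PathHunter cells for 90 min at 37 C, with 57 uM final dopamine (EC100) defining full response. Beta-arrestin recruitment detected by chemiluminescent reagent, read after 1 h at ambient temperature.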
CtBP-E1A inh – CtBP/E1A binding inhibition. AID 651724. activity change, % (no concentration beside the values). AlphaScreen GST-E1A/His-CtBP binding, 1536-well; active compounds read low; control for the full effect not named in the record. hit rate 0.49% among 340,000; in the data active means activity change below about -65%; inconclusive means about -30% to -65%; inactive means above about -30%; further: on the % scale 0 is the no-effect control and ±100 the full control effect
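Protein mix (5X: 125 nM each GST-E1A, His-CtBP) was incubated with pinned compound 2 h at 37 deg C in dark, in 50 mM Tris pH 8.0 buffer with 300 mM NaCl. Glutathione donor and nickel acceptor beads followed; AlphaScreen signal read after 1 h.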
PINK1 expr mod – changes PINK1 expression; PINK1 immunofluorescence, high-content cytometry, 24 h; Potency, µM (top dose mostly 76.6 µM), without a hit: top-dose activation (PINK1 increase), most hits filed as activators; hit rate 0.2% among 410,000; AID 624263; active = well fitted activation curve with a large enough effect; inconclusive = small, poorly fitted or top-dose-only effect; inactive = flat fitted curve, though single readings scatter; cell line not stated here;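 further: potency means the concentration at half of the fitted maximal effect; % of control where 0% means no effect; nearly all actives have a fitted effect of over 65% in size; a mitochondrial uncoupler was the plate control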
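Stable cell line, 250 cells/well, 12 h attachment; compounds pinned at 5 concentrations, 24 h; CCCP control. Fixed with nuclear dye, primary antibodies 12 h at 10 degrees C, secondary plus cell stain; laser-scanning cytometer read.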
TRPML1 blocker – human mucolipin-1 channel inhibition. Q9GZU1. TRPML1-inducible cells, Ca2+ dye fluorescence, FDSS; active compounds read low; inhibition of EC80 agonist-evoked calcium signal. activity change, negative = inhibition, % (concentration not given with the values). hit rate 0.02% among 390,000; in the data active means activity change below about -50%; inconclusive means about -30% to -50%; inactive means above about -30%;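 further: stimulus is agonist 54-4 at its EC80 concentration; on the % scale 0 is the no-effect control and ±100 the full control effect; the text of the record puts the active cut at -80%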
Target sequence (Q9GZU1 whole entry, looked up): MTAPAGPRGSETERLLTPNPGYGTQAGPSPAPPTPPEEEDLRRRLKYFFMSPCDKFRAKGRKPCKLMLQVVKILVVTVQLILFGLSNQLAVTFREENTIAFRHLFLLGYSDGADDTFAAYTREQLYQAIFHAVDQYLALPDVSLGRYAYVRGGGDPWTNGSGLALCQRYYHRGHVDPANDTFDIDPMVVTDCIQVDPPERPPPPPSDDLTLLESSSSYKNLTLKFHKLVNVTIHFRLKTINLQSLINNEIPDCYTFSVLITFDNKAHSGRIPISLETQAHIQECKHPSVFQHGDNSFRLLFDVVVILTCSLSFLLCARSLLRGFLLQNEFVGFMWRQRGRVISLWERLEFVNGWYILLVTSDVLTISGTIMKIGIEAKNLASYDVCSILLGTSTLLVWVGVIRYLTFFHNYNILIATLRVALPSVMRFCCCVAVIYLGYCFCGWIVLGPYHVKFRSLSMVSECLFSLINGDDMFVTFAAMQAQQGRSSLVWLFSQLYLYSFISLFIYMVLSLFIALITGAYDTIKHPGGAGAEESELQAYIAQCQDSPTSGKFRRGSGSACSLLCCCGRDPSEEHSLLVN
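Calcium fluorescence in TRPML1-DL cells induced overnight with Tet: a 110 s read after compound pin addition, then a 110 s antagonist read after challenge with 54-4 at 4 uM final (EC80).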
Six1-Eya2 inh – Six1/Eya2 interaction inhibition | AlphaScreen GST-Six1/His-Eya2 binding, biochemical; active compounds read low; control for the full effect not named in the record | Q15475+O00167 | hit rate 0.56% among 360,000 | activity change, % (test concentration not listed); in the data active = activity change below about -65%; inconclusive = about -30% to -65%; inactive = above about -30%; further: on the % scale 0 is the no-effect control and ±100 the full control effect
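Six1/Eya2 binding was read as AlphaScreen signal after compounds were pinned into GST-Six1 plus His-tagged Eya2 (5X stock 250/500 nM) in pH 8.0 Tris/NaCl/TCEP buffer, beads added, then incubated 1 h, 37 C, dark.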
TRPML1 ag – human mucolipin-1 channel agonism; Q9GZU1; TRPML1-expressing cells, Ca2+ dye fluorescence, FDSS; host cell line not named in the record; reference of the full effect not given here; activation, % (no concentration beside the values); hit rate 0.12% among 410,000; in the data active = activation above about 50%; inconclusive = about 30% to 50%; inactive = below about 30%; further: 0% is about no effect; the text of the record puts the active cut at 80%
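In this qHTS format, compounds were pin-transferred onto Ca8-dye-loaded TRPML1-DL cells induced with Tet overnight, and intracellular Ca2+ fluorescence was recorded kinetically for 110 s after a 10 s baseline. A subsequent 4uM final 54-4 (EC80) addition followed by a second 110 s read served as the antagonist phase.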
Starred values were filed as active, the others as inactive; u = inconclusive; x = no result given; [ ] = remark or other dose.

SMILES	D2 agonist	CtBP-E1A inh	PINK1 expr mod	TRPML1 blocker	Six1-Eya2 inh	TRPML1 ag
O=[N+]([O-])c1ccc(S(=O)(=O)NCC(c2cccnc2)N2CCc3ccccc3C2)cc1 (stereo not given)	5.1	-5	1.0%	-4	-10	0.3
Cc1nnc(SC(C)C(=O)NC2CCCCC2)s1 (stereo not given)	4.1	-13	3.4%	-26	5	0.7
Nc1nccnc1C(=O)N/N=C/c1ccco1	-2.2	x	-0.1%	23	-26	-0.1
O=[N+]([O-])c1nn(-c2ccc3c(c2)OCCO3)n(O)c1=NC1CCCC1	7.7	0	3.2%	-17	-10	0.8
O=C(COC(=O)c1cccs1)Nc1ccc(Cl)cn1	1.8	1	0.9%	11	3	2.5
COc1cccc(C2c3[nH]c4ccccc4c3CCN2Cc2cnn(C)c2)c1 (stereo not given)	-1.1	-23	3.7%	-10	5	-0.1
Cc1ccc(/C=C/C(=O)c2c(C)cc(C)[nH]c2=O)cc1	-3.9	6	0.6%[38.3 µM]	-3	1	0.0
CCCCCC(O)(c1ccccc1)C(CN1CCOCC1)c1ccccc1 (stereo not given)	-5.7	-4	3.6%	x	-3	x
c1ccc2c(c1)OCCOCCOCCOCCOCCOc1ccccc1OCCOCCOCCO2	-2.5	-2	u	6	-16	-1.0
O=C(NCCOc1ccccc1)C1CCN(C(=O)Nc2ccccc2)CC1	-3.7	-3	0.8%	2	-6	-0.9
O=C(COC(=O)c1ccccc1Br)Nc1ccc(F)cc1	-0.1	9	-0.3%	-16	8	2.2
CCCc1cc(=O)[nH]c2nnc(SCC(=O)Nc3ccc(OC)cc3)n12	x	x	25%	12	x	2.3
CN=C1S/C(=C\c2cccn2-c2cccc(Br)c2)C(=O)N1C	-3.8	-7	u	-11	-11	1.0
O=C(O)c1ccc(S(=O)(=O)N2CCC(c3nc(-c4ccccc4Cl)no3)CC2)cc1	-0.7	8	u	14	3	0.9
COc1ccc(CC(=O)NCCc2csc(-c3ccc(Cl)cc3)n2)cc1	x	x	2.7%	-13	x	-0.3
CCc1cccc(NC(=O)COc2ccccc2)c1	-0.8	14	-1.3%	-4	13	0.7
Cc1ccccc1-c1nnc(-c2ccccc2C)o1	-1.6	8	-0.4%	2	11	3.8
CCc1ccc2nc(N3CCN(C(=O)c4ccco4)CC3)sc2c1	x	x	-0.7%	6	x	1.1
COc1ccc(N2C(=O)CSCC2=O)cc1OC	-1.3	4	-0.1%	-12	2	-0.8
CC1CCN(S(=O)(=O)c2cn(CC(=O)Nc3ccc(F)c(Cl)c3)c(=O)c3ccccc23)CC1	x	x	2.0%	2	x	0.5
Cn1cc(CN2CCCC(C(=O)c3nccn3C)C2)c(-c2cccc(Cl)c2)n1 (stereo not given)	-1.4	-8	-0.4%	-6	10	0.3
CCN(C(=O)c1cc2c(Cl)nc3ccccc3c2s1)c1cccc(Cl)c1	x	x	0.9%	21	x	0.2
Cc1nc2ccc(S(=O)(=O)CCC(=O)Nc3ccc(C(C)C)cc3)cc2s1	x	x	1.1%	-3	x	0.4
COc1ccc(C)cc1NC(=O)COC(=O)c1ccc2c(c1)OCCO2	0.3	5	5.0%	1	7	0.6
O=C(Nc1ccccc1)c1cn2ccccc2n1	2.7	0	-1.2%	-2	3	-0.1
CC(C)CNC(=O)COc1ncnc2sccc12	-6.7	x	1.3%	-10	9	0.2
O=C(COC(=O)CC12CC3CC(CC(C3)C1)C2)Nc1cccnc1Cl	-3.1	-26	12%	13	5	-0.5
C=CCn1c(SCc2c(F)c(F)c(F)c(F)c2F)nc(O)cc1=O	-1.8	-2	2.2%	-14	2	10.0
O=C(NCc1ccon1)c1ccc(OC2CCN(CCc3ccccc3)CC2)cc1	-2.2	-4	1.3%	47	2	0.0
COC(=O)c1cccc(CN2C(=O)C(C)Sc3ccc(C(C)=O)cc32)c1 (stereo not given)	-2.0	2	-0.3%	x	-6	-0.5

Results in TRPML1 ag and PINK1 expr mod (four entries from above):
Structure | TRPML1 ag | PINK1 expr mod
CCN(C(=O)c1cc2c(Cl)nc3ccccc3c2s1)c1cccc(Cl)c1 | 0.2 | 0.9%
COC(=O)c1cccc(CN2C(=O)C(C)Sc3ccc(C(C)=O)cc32)c1 (stereo not given) | -0.5 | -0.3%
O=C(NCc1ccon1)c1ccc(OC2CCN(CCc3ccccc3)CC2)cc1 | 0.0 | 1.3%
CC(C)CNC(=O)COc1ncnc2sccc12 | 0.2 | 1.3%

Following part:
SMILES	D2 agonist	CtBP-E1A inh	PINK1 expr mod	TRPML1 blocker	Six1-Eya2 inh	TRPML1 ag
C[C@@H]1CN([C@H](C)CO)C(=O)CCCn2nncc2CO[C@@H]1CN(C)C(=O)c1ccncc1	-1.8	-13	-0.1%	-7	4	0.0
COC(=O)CN(c1ccc(OCc2ccccc2)cc1)S(C)(=O)=O	7.3	7	-3.9%	50	2	8.1
CC(=O)Nc1nc2ccccc2n1CCN(C)C	-2.1	-13	1.2%	-13	3	0.6
CCOc1ncccc1C(=O)N(C)CC1COc2ccccc2O1 (stereo not given)	-2.7	0	2.1%	-10	0	0.9
Cc1ccc(/C=C2\SC(=S)N(Cc3ccccc3)C2=O)o1	-0.4	-1	u	9	-2	-0.3
COc1cccc(-n2nnc3c(=O)n(Cc4ccc(Cl)cc4)cnc32)c1	-1.3	-6	-1.9%[38.3 µM]	-1	-2	0.5
CCCCS(=O)(=O)Nc1ccc(Cc2ccncc2)cc1	1.0	0	-0.4%[38.3 µM]	-20	0	0.7
O=C(NCCCN1CCN(c2ccccc2)CC1)c1cc2c(s1)-c1ccccc1OC2	x	x	2.1%	17	x	0.5
O=C(c1ccncc1)c1ccc([N+](=O)[O-])cc1	15	4	-1.4%	-4	-5	-0.5
O=c1[nH]cnc2c1C1(CCCC1)Cc1ccccc1-2	3.9	-19	3.0%	4	0	1.8
COc1ccccc1N(CC(=O)NCc1ccc2c(c1)OCO2)C(=O)CCC(=O)Nc1nccs1	2.1	-4	1.5%	3	0	-0.4
Cc1nc(-c2ccccc2)sc1C1(C)CC(c2ccc([N+](=O)[O-])cc2)=NO1 (stereo not given)	4.6	u	2.3%	20	u	0.2
CC1CCCCC1NC(=O)COCc1cc(-c2cccs2)on1 (stereo not given)	-9.5	13	-0.7%	0	5	0.7
Clc1ncnc2scc(C3COc4ccccc4O3)c12 (stereo not given)	-3.1	7	2.2%	-5	-2	2.0
Cc1c(C)c2c(OCC(=O)N3CCC(C(=O)NCC(C)C)CC3)cc3c(c2oc1=O)CCC(C)(C)O3	2.0	-10	1.2%	16	0	-1.0
CCCN(Cc1ccco1)S(=O)(=O)c1ccc(OC)c(OC)c1	-2.4	x	0.1%	0	0	-0.4
COc1ccc2c(c1)OC(c1ccccc1)(C(F)(F)F)NC2=O (stereo not given)	-3.4	2	8.0%	-12	-5	0.0
COC(=O)c1ccccc1NC(=O)Cn1cc(Br)cn1	-3.7	6	1.1%	8	0	-0.9
CCC(C)Nc1ncnc2c1cnn2Cc1ccc(Cl)cc1 (stereo not given)	u	27	1.3%	0	u	1.6
Cc1nc2ccccc2c(=O)n1NC(=O)c1ccc([N+](=O)[O-])cc1Cl	1.9	-2	-1.1%	-2	-2	0.0
COc1ccc(CC(=O)Oc2cc(C)[nH]c(=O)c2[N+](=O)[O-])cc1	-0.8	9	3.4%	-11	-7	-0.1
COc1ccc(C2CC(c3ccccc3)=NN2C(=O)COC(=O)c2cc(S(=O)(=O)N3CCOCC3)ccc2Cl)cc1 (stereo not given)	-1.1	-3	-0.1%	-15	-5	1.5
CCn1ncc(/C=N\NC(=O)c2csc3ccccc23)c1C	-2.8	1	2.6%	4	-3	0.2
Nc1ccc2c(c1)CCC2=O	-2.6	9	1.2%[38.3 µM]	7	1	0.6
Cc1ccc(NC(=O)c2cc(NC(=O)c3ccccc3C(=O)O)ccc2N2CCCCC2)cc1	3.3	1	-0.4%	-6	-10	-0.3
CC(C)(C)C(=O)Nc1cccc(-c2ccc[nH]2)n1	2.3	3	-2.5%	-11	-7	-0.3
COCCCn1nnnc1SCC(=O)N1CCN(C(=O)c2ccco2)CC1	3.0	9	-0.7%	-24	6	0.4
CNS(=O)(=O)c1cn(CC(=O)N2CCN(c3ccc(OC)cc3)CC2)cc1S(=O)(=O)NC	x	x	0.5%	32	x	-0.2
O=C(NC1CCN(Cc2ccccc2)CC1)c1ccc(Cl)cc1Cl	0.6	x	-0.4%	x	10	x
CN(CC(=O)NCc1ccc(F)cc1)S(=O)(=O)c1ccc2c(c1)n(C)c(=O)c(=O)n2C	-2.7	0	1.4%	-17	7	-0.4

The closing 2 compounds of the part before are carried over, then new ones follow:
SMILES	D2 agonist	CtBP-E1A inh	PINK1 expr mod	TRPML1 blocker	Six1-Eya2 inh	TRPML1 ag
O=C(NC1CCN(Cc2ccccc2)CC1)c1ccc(Cl)cc1Cl	0.6	x	-0.4%	x	10	x
CN(CC(=O)NCc1ccc(F)cc1)S(=O)(=O)c1ccc2c(c1)n(C)c(=O)c(=O)n2C	-2.7	0	1.4%	-17	7	-0.4
COc1cccc(C(=O)N/N=C2\SCC(=O)N2Cc2ccc3c(c2)OCO3)c1	-1.5	-7	1.7%[38.3 µM]	-4	-5	1.0
COc1ccc2oc(C(=O)N(CC(C)C)C3CCS(=O)(=O)C3)c(C)c2c1 (stereo not given)	-0.2	-4	4.4%	-15	-5	0.3
CC1CCN(C(=S)c2cn(Cc3ccc(F)cc3)c3ccccc23)CC1	-1.3	-12	1.0%	34	-29	-0.2
CCc1nc2c(n1O)CCc1nonc1-2	-3.7	-1	1.3%[38.3 µM]	2	-2	0.3
Cc1ccccc1CC1C(=O)Nc2ccc(Br)cc21 (stereo not given)	x	x	1.8%	-7	x	-0.2
C/C(=N\NC(=O)c1ccn(C)n1)c1ccc(NC(=O)c2cccc(F)c2)cc1	0.0	-4	3.2%	23	3	-0.2
CC(NC(=O)c1ccc2nc(Cc3cccc(Cl)c3)oc2c1)c1ccncn1 (stereo not given)	-1.5	4	0.5%	-13	-7	0.0
CNC(=O)C1Cc2c(-c3cccc(F)c3)ccnc2O1 (stereo not given)	-4.9	0	1.1%	x	1	-0.5
CC(=O)NS(=O)(=O)c1ccc(NC(=O)c2cccc(OCc3c(C)noc3C)c2)cc1	-2.2	x	1.1%	-3	5	-0.1
O=C(O)CCn1c(SCCOc2ccccc2)nc2ccccc21	-3.9	x	-0.5%	35	0	-0.6
Cc1nc2ccc(S(=O)(=O)N(C)CC(=O)Nc3cccc(C(F)(F)F)c3)cc2s1	x	x	3.9%	-5	x	0.6
COc1cc(C2=NOC(C(=O)Nc3ccc4c(c3)OCO4)C2)cc(OC)c1OC (stereo not given)	-0.1	-13	1.4%	-17	-14	-1.1
CC1CCCC(C)N1/N=C/c1cccc(Br)c1 (stereo not given)	-3.5	3	14%	34	-14	-1.1
CCCn1c(SCC(=O)N2c3ccccc3Sc3ccccc32)nc2ccccc21	-4.8	-1	5.8%	3	-1	-0.8
O=C(O)c1ccc(Cl)c(S(=O)(=O)NCc2ccco2)c1	-4.0	9	-0.4%	15	9	0.3
O=c1c2cnn(-c3ccccc3)c2ncn1Cc1ccccc1F	-0.7	3	5.5%	23	6	0.4
CCOC(=O)c1nc2ccccc2c(C)c1C	-3.5	4	3.3%	-13	31	-0.8
